miR-21 reporter = qHTS Assay for Modulators of miRNAs and/orActivators of miR-21; HeLa miR-21 FLuc reporter, luciferase, 48 h; Potency, µM (doses to about 38.3 µM), without a hit: at the highest dose reporter change, positive = more light; 340,000 tested, under 10 active; AID 2288, 2010; active = well fitted rising curve with a large enough effect; inconclusive = small, poorly fitted or top-dose-only effect; inactive = no such curve, though single readings can be large or run the other way;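 note: % of control where 0% means no effect; miR-21 action dims this reporter so a rising signal means less miR-21 action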
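Using DMEM plus 10% FBS, HeLa miR-21-FLuc cells are incubated with test compounds (final up to about 40uM) for 48 hours; firefly luciferase signal is then imaged following reagent-mediated lysis.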
Rango complex inh = qHTS Assay for Inhibitors of Rango (Ran-regulated importin-beta cargo) - Importin beta complex formation; 0.031% of 340,000 active; Importin subunit beta-1 (Homo sapiens), Q14974; Potency, µM (titrated, usually from 92.2 µM), inactives show top-dose inhibition of complex formation; Rango CFP/YFP FRET sensor + importin beta, 45 min; active = rising FRET ratio curve, often small or poorly fitted; inconclusive = mostly compound fluorescence or quenching in the first reads; inactive = flat curves in all reads;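 note: potency is the fitted concentration of half-maximal effect; 0% = DMSO wells and 100% = buffer wells lacking importin beta; nearly all actives have a fitted effect of over 15% in size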
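FRET biosensor (snurportin 1 IBB flanked by EYFP and cerulean), 50 nM, with compound 5 min, then 0.125 microM importin beta in PBS, 1 mM DTT, 0.02% Tween-20, 0.1% BSA. CFP/YFP ratio read after 45 min at room temperature; pre-read flags interference.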
Rango dissoc inh = qHTS Assay for Inhibitors of RanGTP induced Rango (Ran-regulated importin-beta cargo) - Importin beta complex dissociation | Snurportin-1 (Homo sapiens) + GTP-binding nuclear protein Ran (Homo sapiens) + Importin … | Biochemical FRET Rango-importin beta, RanGTP-induced dissociation | Potency, µM (series often up to 46.1 µM), for inactives: at the top dose activity change, negative = inhibition | 0.071% of 340,000 active; active means falling FRET ratio curve, often poorly fitted, with flat reads before Ran was added; inconclusive means other falling curves, or compound fluorescence or quenching; inactive means flat or rising ratio curve;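 note: potency is the fitted concentration of half-maximal effect; % of control where 0% means no effect; nearly all actives have a fitted effect of over 45% in size; -100% = wells without RanGTP and RCC1; the record marks most hits as doubtful in a second field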
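FRET read at 45 min, room temperature: inhibitors block the CFP/YFP signal rise when RanGTP (0.6 uM Ran, 2 mM GTP, 0.2 uM RCC1) frees Rango (0.1 uM) from importin beta (0.25 uM). Pre-read after 5 min compound exposure flags interference.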
GLA inh pH 4.5 = qHTS Assay for Inhibitors of Human alpha-Galactosidase at pH 4.5. AID 1467, 2008. Alpha-galactosidase A (Homo sapiens), P06280. purified enzyme, 4-MU-alpha-Gal fluorescence, pH 4.5. activity change, negative = inhibition, % at 105 µM. 230,000 tested, under 10 active; inconclusive = small, poorly fitted or top-dose-only inhibition, or a rising curve; inactive = flat fitted curve, though single readings scatter; no compound was filed as active;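 note: 0% = full activity with enzyme and -100% = basal without enzyme; dose as in the result columns while the protocol names 77 µM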
Target sequence (P06280 whole entry, looked up): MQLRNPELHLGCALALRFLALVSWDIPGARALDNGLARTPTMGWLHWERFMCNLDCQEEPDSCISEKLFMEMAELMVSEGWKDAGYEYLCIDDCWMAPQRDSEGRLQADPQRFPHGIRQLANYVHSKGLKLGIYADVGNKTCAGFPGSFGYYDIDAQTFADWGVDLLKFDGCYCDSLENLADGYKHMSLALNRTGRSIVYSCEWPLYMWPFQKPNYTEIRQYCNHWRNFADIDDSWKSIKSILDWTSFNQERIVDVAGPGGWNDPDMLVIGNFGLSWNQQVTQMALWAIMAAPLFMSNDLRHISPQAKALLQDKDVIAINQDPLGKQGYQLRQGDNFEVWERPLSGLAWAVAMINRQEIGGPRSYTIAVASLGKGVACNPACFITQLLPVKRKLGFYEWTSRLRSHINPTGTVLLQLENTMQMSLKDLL
An asterisk follows results filed as active; & = joins results of further samples. An excerpt, so the mix of outcomes need not match the whole.

What do the screens show for `Cc1ccc(NC(=O)c2ccc(OC(=O)COc3ccc(Cl)c(C)c3)cc2)cc1`?
miR-21 reporter: -54%; Rango complex inh: 0.4%; Rango dissoc inh: -10%; GLA inh pH 4.5: 4

What do the screens show for `COc1ccc2cc(C#N)c(N3CCN(Cc4nnnn4CCC(C)C)CC3)nc2c1`?
miR-21 reporter: -1%; Rango complex inh: -2.4%; Rango dissoc inh: inconclusive; GLA inh pH 4.5: -9

Results for Cc1ccc(S(=O)(=O)Nc2ccccc2N=Cc2ccc([N+](=O)[O-])cc2[N+](=O)[O-])cc1 ?
Rango complex inh: 1.5%; Rango dissoc inh: -5%

How did COc1ccc(C(=O)NCc2nnc(SCC(=O)NC3CCCCC3)n2C)cc1 do in these assays?
miR-21 reporter: 9%; Rango complex inh: 0.0%; Rango dissoc inh: -1%

How did Cc1cccc(-n2nc3c(c2NC(=O)c2cc4ccccc4o2)CS(=O)(=O)C3)c1 do in these assays?
miR-21 reporter: -2%; Rango complex inh: -1.3%; Rango dissoc inh: 10%

What do the screens show for `CCOc1cc(CN2CCN(c3cccc(C(F)(F)F)c3)CC2)ccc1O`?
miR-21 reporter: 1%; Rango complex inh: 0.4%; Rango dissoc inh: -6%; GLA inh pH 4.5: -8

What do the screens show for `Cc1ccc(N2CC(C(=O)Nc3ccc(S(=O)(=O)NCC4CCCO4)cc3)CC2=O)cc1` (stereo unspecified)?
miR-21 reporter: -4%; Rango complex inh: -1.4%; Rango dissoc inh: inconclusive

What do the screens show for `COc1cccc(C2=NOC(C(=O)Nc3cc(C)on3)C2)c1OC` (stereo unspecified)?
miR-21 reporter: -9%; Rango complex inh: 3.8%; Rango dissoc inh: 33%; GLA inh pH 4.5: 19

Results for COc1cc(OC)c(C2=NOC(C(=O)NCc3ccc4c(c3)OCO4)C2)cc1Cl (stereo unspecified) ?
miR-21 reporter: 18%; Rango complex inh: 0.7%; Rango dissoc inh: -13%; GLA inh pH 4.5: -3

Results for CC1(C)C(=O)Nc2ccccc2N1C(=O)COc1cc(Cl)ccc1Cl ?
Rango complex inh: 3.5%; Rango dissoc inh: -6%

What do the screens show for `CC(C)OC(=O)CSc1nc2ccccc2s1`?
miR-21 reporter: -12%; Rango complex inh: -3.2%; Rango dissoc inh: 11%; GLA inh pH 4.5: -7

Results for CCOC(=O)Cn1nc(C)c(NC(=O)COc2ccc([N+](=O)[O-])c(C)c2)c1C ?
miR-21 reporter: 0%; Rango complex inh: 0.0%; Rango dissoc inh: 1%; GLA inh pH 4.5: -10

Results for COc1ccc(CCC(=O)NCCc2ccc(OC)c(OC)c2)cc1 ?
miR-21 reporter: -2%; Rango complex inh: inconclusive; Rango dissoc inh: 1%

What do the screens show for `Cc1ccccc1C(=O)N1CCC(C(=O)NCc2ccc(Cl)cc2)CC1`?
miR-21 reporter: 7%; Rango complex inh: 2.9%; Rango dissoc inh: 1%

Results for Cc1ccc2oc(-c3ccccc3)nc2c1 ?
miR-21 reporter: -65%; Rango complex inh: 0.5%; Rango dissoc inh: 3%; GLA inh pH 4.5: 6

What do the screens show for `CCN1CCN(CCCNC(=O)c2cc3c(s2)-c2ccccc2OC3)CC1`?
miR-21 reporter: -27%&0%; Rango complex inh: 0.3%; Rango dissoc inh: -3%

How did CCCOc1ccccc1C1CC(=O)Nc2cc3c(cc21)OCO3 (stereo unspecified) do in these assays?
miR-21 reporter: 22%; Rango complex inh: -1.5%; Rango dissoc inh: 0%; GLA inh pH 4.5: -5

What do the screens show for `CCOC(=O)c1ccc(NC(=O)COc2coc(CN3CCc4ccccc43)cc2=O)cc1`?
Rango complex inh: -0.2%; Rango dissoc inh: -10%

What do the screens show for `COCCNC(=O)C1CC(c2cccc(OC)c2)=NO1` (stereo unspecified)?
miR-21 reporter: -2%; Rango complex inh: -0.1%; Rango dissoc inh: 6%; GLA inh pH 4.5: 2

What do the screens show for `CCN1C(=S)N[C@@H](CCc2ccccc2)[C@H](C(=O)OC)[C@H]1C`?
miR-21 reporter: 1%&2%; Rango complex inh: 5.2%; Rango dissoc inh: 0%

What do the screens show for `CN1CCN(C(=O)/C(=C/c2cccs2)NC(=O)c2cccs2)CC1`?
miR-21 reporter: -3%; Rango complex inh: 2.0%; Rango dissoc inh: 4%; GLA inh pH 4.5: 8

What do the screens show for `C=CCn1c(C)cc(/C([O-])=C(/C(=S)Nc2ccc(OC(F)F)cc2)[n+]2ccc(N(C)C)cc2)c1C`?
miR-21 reporter: 0%; Rango complex inh: -0.8%; Rango dissoc inh: -25%; GLA inh pH 4.5: 1

Results for COc1ccc(Cl)cc1NC(=S)NNC(=O)c1cccnc1 ?
miR-21 reporter: -3%; Rango complex inh: 0.3%; Rango dissoc inh: -4%; GLA inh pH 4.5: -8

What do the screens show for `COC(=O)[C@]1(C)N[C@H](CN(C)C(=O)Nc2ccccc2)[C@@H]2C(=O)N(Cc3ccccc3)C(=O)[C@@H]21`?
Rango complex inh: 0.1%; Rango dissoc inh: -10%

How did COc1cc2c(cc1CN1CCN(C(=O)c3cc(OC)c(OC)c(OC)c3)CC1)OCO2 do in these assays?
miR-21 reporter: 1%; Rango complex inh: 0.1%; Rango dissoc inh: -4%

Results for CC1(C)OC(=O)C(=Cc2ccc(-c3ccc(Cl)c(C(=O)O)c3)o2)C(=O)O1 ?
miR-21 reporter: -2%; Rango complex inh: inconclusive; Rango dissoc inh: -29%; GLA inh pH 4.5: -9

Results for COC(=O)c1ccc(C(=O)OC)c(NC(=O)COC(=O)CCOc2ccc(C)cc2)c1 ?
Rango complex inh: 6.7%; Rango dissoc inh: -12%

How did COc1ccc2c(c1)O[C@@]1(CCCC[C@@H]1C)CC2=O do in these assays?
Rango complex inh: 1.8%; Rango dissoc inh: 1%

How did COc1ccc(CN2CCN(C(=O)c3ccccc3C(=O)c3ccccc3)CC2)cc1OC do in these assays?
Rango complex inh: -1.8%; Rango dissoc inh: -6%

What do the screens show for `COc1ccc(CC(=O)N2CCC3(CC2)NCCc2[nH]cnc23)cc1`?
miR-21 reporter: -4%; Rango complex inh: -1.0%; Rango dissoc inh: 2%

Results for Cc1ccc(COC(=O)CN2C(=O)NC3(CCCCC3C)C2=O)cc1 (stereo unspecified) ?
Rango complex inh: -1.8%; Rango dissoc inh: inconclusive

What do the screens show for `Cn1cc(/C=C/C(=O)N2CCCC(C(=O)c3ccc(C(F)(F)F)cc3)C2)cn1` (stereo unspecified)?
miR-21 reporter: -5%; Rango complex inh: 0.2%; Rango dissoc inh: -8%; GLA inh pH 4.5: -17

What do the screens show for `CCN(CC)Cc1c(C(=O)N/N=C/c2ccco2)nnn1-c1nonc1N`?
miR-21 reporter: -1%; Rango complex inh: -2.2%; Rango dissoc inh: -12%

How did O=C(OCc1nc2ccc(Cl)cc2n1CCO)c1ccccc1C(=O)c1ccccc1 do in these assays?
miR-21 reporter: -6%; Rango complex inh: 4.4%; Rango dissoc inh: 12%; GLA inh pH 4.5: 3

How did Cn1cccc1Cc1nnc(SCC(=O)Nc2ccccc2F)n1-c1ccc(F)cc1 do in these assays?
miR-21 reporter: -9%; Rango complex inh: 3.9%; Rango dissoc inh: 1%; GLA inh pH 4.5: -5

Results for O=C(Nc1ccccc1OC(F)F)c1ccc(F)cc1 ?
miR-21 reporter: -13%; Rango complex inh: -3.5%; Rango dissoc inh: -7%; GLA inh pH 4.5: -3

What do the screens show for `CC(=O)NNc1ncnc2ccccc12`?
miR-21 reporter: -5%; Rango complex inh: -0.1%; Rango dissoc inh: 20%; GLA inh pH 4.5: 0

Results for O=C(Nc1cc(C(=O)N2CCOCC2)cc(C(=O)N2CCOCC2)c1)c1cc(F)c(F)cc1Cl ?
miR-21 reporter: -3%; Rango complex inh: 1.8%; Rango dissoc inh: -10%; GLA inh pH 4.5: -3

What do the screens show for `O=C(NCc1ccccc1)N1CCN(c2ccc(Cl)c(Cl)c2)CC1`?
miR-21 reporter: -6%; Rango complex inh: -0.2%; Rango dissoc inh: 35%; GLA inh pH 4.5: 5

What do the screens show for `Clc1cnc(N/N=C/c2ccco2)c(Cl)c1`?
miR-21 reporter: 2%; Rango complex inh: 3.4%; Rango dissoc inh: 30%; GLA inh pH 4.5: -3

How did CCCC(C)C(=O)Nc1nc(C)c(-c2csc(Nc3cc(Cl)ccc3C)n2)s1 (stereo unspecified) do in these assays?
miR-21 reporter: 3%; Rango complex inh: 0.2%; Rango dissoc inh: 11%; GLA inh pH 4.5: -8

What do the screens show for `COc1ccc(-c2cc(=O)[nH][nH]2)cc1OC`?
miR-21 reporter: -2%; Rango complex inh: 2.9%; Rango dissoc inh: 31%; GLA inh pH 4.5: 6

How did CCN(C(=O)CSc1nnc(-c2cccs2)o1)C1CCS(=O)(=O)C1 (stereo unspecified) do in these assays?
miR-21 reporter: -8%; Rango complex inh: -1.4%; Rango dissoc inh: 1%; GLA inh pH 4.5: 8

What do the screens show for `COc1ccc(OC)c(C2C3=C(N=c4s/c(=C\c5cccc(O)c5)c(=O)n42)c2ccccc2CC3)c1` (stereo unspecified)?
miR-21 reporter: -1%; Rango complex inh: -0.4%; Rango dissoc inh: -1%; GLA inh pH 4.5: 1

What do the screens show for `COc1cccc(CNC(=O)c2ccc(CS(=O)Cc3ccc(C)cc3)o2)c1` (stereo unspecified)?
miR-21 reporter: 0%; Rango complex inh: -4.5%; Rango dissoc inh: 5%

Overlap with the part before: four entries, followed by the next part.
What do the screens show for `COc1ccc(-c2cc(=O)[nH][nH]2)cc1OC`?
miR-21 reporter: -2%; Rango complex inh: 2.9%; Rango dissoc inh: 31%; GLA inh pH 4.5: 6

How did CCN(C(=O)CSc1nnc(-c2cccs2)o1)C1CCS(=O)(=O)C1 (stereo unspecified) do in these assays?
miR-21 reporter: -8%; Rango complex inh: -1.4%; Rango dissoc inh: 1%; GLA inh pH 4.5: 8

What do the screens show for `COc1ccc(OC)c(C2C3=C(N=c4s/c(=C\c5cccc(O)c5)c(=O)n42)c2ccccc2CC3)c1` (stereo unspecified)?
miR-21 reporter: -1%; Rango complex inh: -0.4%; Rango dissoc inh: -1%; GLA inh pH 4.5: 1

What do the screens show for `COc1cccc(CNC(=O)c2ccc(CS(=O)Cc3ccc(C)cc3)o2)c1` (stereo unspecified)?
miR-21 reporter: 0%; Rango complex inh: -4.5%; Rango dissoc inh: 5%

How did COc1ccc(NC(=O)CCCn2c(=O)c3sccc3n(Cc3ccc(C)cc3C)c2=O)cc1 do in these assays?
miR-21 reporter: -10%; Rango complex inh: -0.6%; Rango dissoc inh: 4%; GLA inh pH 4.5: 3

What do the screens show for `CC(=O)N/C(=N/c1nc(C)cc(C)n1)Nc1cc(C)cc(C)c1`?
miR-21 reporter: -2%; Rango complex inh: -0.6%; Rango dissoc inh: inconclusive

What do the screens show for `Cc1nc([N+](=O)[O-])cn1CC(=O)Nc1ccc([N+](=O)[O-])cc1`?
miR-21 reporter: 0%; Rango complex inh: 1.2%; Rango dissoc inh: -7%

What do the screens show for `CCOC(=O)c1c(NC(=O)CSc2nnc(CNc3ccc(OC)cc3)n2C)sc(C)c1C`?
miR-21 reporter: -1%; Rango complex inh: -0.7%; Rango dissoc inh: 0%; GLA inh pH 4.5: -1

Results for O=C(COC(=O)C1CC1)Nc1ccc(Oc2ccccc2)cc1 ?
miR-21 reporter: -10%; Rango complex inh: -2.7%; Rango dissoc inh: 1%; GLA inh pH 4.5: -5

How did Cc1c(C(=O)c2ccc(Br)cc2)c(=O)n(C)c(=O)n1C do in these assays?
miR-21 reporter: -1%; Rango complex inh: 4.7%; Rango dissoc inh: 4%; GLA inh pH 4.5: 7

Results for COC(=O)[C@@]12CCCCN1[C@H](c1ccc(-c3ccc(F)cc3)c(OC)c1)[C@H]1C(=O)N(C)C(=O)[C@H]12 ?
Rango complex inh: 0.1%; Rango dissoc inh: 9%

How did COc1ccccc1NC(=O)Cc1coc2cc(C)ccc12 do in these assays?
miR-21 reporter: -31%; Rango complex inh: 2.7%; Rango dissoc inh: -18%; GLA inh pH 4.5: -8

Screening results: PubChem, National Center for Advancing Translational Sciences (NCATS)
